# Screening data (PubChem)
# Env fusion inh – inhibitors of HIV Env-mediated cell fusion; HeLa-JRFL Env/CEM21 cell fusion, luciferase; inhibition, % at 12.3 µM; AID 651610; 360,000 compounds, 1.1% hits;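 active means mean replicate inhibition score of at least 50 and every replicate individually at or above 50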;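 further: 0% = plate neutral controls and 100% = maraviroc near 300 nM; one replicate is shown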
# UUG fidelity – alters start codon recognition fidelity in yeast; S. cerevisiae UUG-firefly luciferase reporter, luminescence/redox ratio; activity score, % at 18.7 µM; 350,000 compounds, 0.13% hits;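 active means replicate mean at a twofold rise or more, about +100% in these data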;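 further: firefly luciferase made from a UUG start codon reports start codon fidelity; reporter light over untreated wells divided by growth signal over untreated wells; some hits fall short of that in this replicate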
# Numbers without * were called inactive; [ ] = dose if it differs, or a comment. The list is partial; count on the stated rates, not on these rows.
SMILES,Env fusion inh,UUG fidelity
Cc1ccc(S(=O)(=O)Nc2ccc3c(c2)C(=O)N([C@H](C)CO)C[C@@H](C)[C@H](CN(C)Cc2ccc4c(c2)OCO4)OCCCC[C@@H](C)O3)cc1,-57[16.7 µM],21
COc1ccccc1S(=O)(=O)N[C@H]1CC[C@H](CCNC(=O)C2CCCCC2)O[C@H]1CO,-3[16.7 µM],-9
O=C(C[C@@H]1CC[C@@H]2[C@H](COC[C@@H](O)CN2CCC(F)(F)F)O1)N1CCC(Cc2ccccc2)CC1,8[16.7 µM],-2
C[C@@H]1CCCCO[C@H](CN(C)C(=O)c2ccncc2)[C@H](C)CN([C@@H](C)CO)C(=O)c2cc(N(C)C)ccc2O1,-27[16.7 µM],-11
C[C@H](NC(=O)C[C@H]1CC[C@@H](NC(=O)Cc2ccccn2)[C@H](CO)O1)c1ccccc1,0[16.7 µM],-17
C[C@H](CO)N1C[C@H](C)[C@H](CN(C)S(=O)(=O)c2ccccc2)Oc2ccc(NS(=O)(=O)c3cccs3)cc2CC1=O,64*[16.7 µM],5
C/C=C/c1cnc2c(c1)C(=O)N([C@H](C)CO)C[C@@H](C)[C@@H](CN(C)Cc1ccccc1)O2,15[16.7 µM],1
C[C@@H]1CCCCO[C@H](CN(C)CC2CCCCC2)[C@H](C)CN([C@H](C)CO)C(=O)c2cc(NS(=O)(=O)c3ccccc3)ccc2O1,11[16.7 µM],46
CC(C)NC(=O)Nc1ccc2c(c1)C(=O)N([C@@H](C)CO)C[C@@H](C)[C@@H](CN(C)Cc1ccc(C(=O)O)cc1)O2,11[16.7 µM],-4
C[C@H](CO)N1C[C@H](C)[C@H](CN(C)C(=O)Nc2cccc3ccccc23)OCCCC[C@H](C)Oc2ccc(NC(=O)CCC(F)(F)F)cc2C1=O,-11[16.7 µM],3

# Entries shown so far that have nitrogen in an aromatic ring:
SMILES,Env fusion inh,UUG fidelity
C[C@@H]1CCCCO[C@H](CN(C)C(=O)c2ccncc2)[C@H](C)CN([C@@H](C)CO)C(=O)c2cc(N(C)C)ccc2O1,-27[16.7 µM],-11
C[C@H](NC(=O)C[C@H]1CC[C@@H](NC(=O)Cc2ccccn2)[C@H](CO)O1)c1ccccc1,0[16.7 µM],-17
C/C=C/c1cnc2c(c1)C(=O)N([C@H](C)CO)C[C@@H](C)[C@@H](CN(C)Cc1ccccc1)O2,15[16.7 µM],1

# Following part
SMILES,Env fusion inh,UUG fidelity
CC(C)CC#Cc1ccc2c(c1)O[C@H](CN(C)Cc1cccc(F)c1)[C@@H](C)CN([C@@H](C)CO)S2(=O)=O,6[16.7 µM],-1
C[C@H](NC(=O)C[C@H]1CC[C@H](NC(=O)Cc2ccccn2)[C@H](CO)O1)c1ccccc1,9[16.7 µM],-15
C[C@H](CO)N1C[C@H](C)[C@@H](CN(C)Cc2ccc(C(F)(F)F)cc2)OCCCC[C@H](C)Oc2ccc(NC(=O)Nc3ccc(C(F)(F)F)cc3)cc2C1=O,29[16.7 µM],0
COCC(=O)N1C[C@@H](C)[C@H](OC)CN(C)C(=O)c2cc(NC(=O)c3ccc(OC)cc3)ccc2OC[C@@H]1C,-1[16.7 µM],18
COc1ccc(NC(=O)N(C)C[C@@H]2Oc3ncc(C#C[C@H](C)O)cc3C(=O)N([C@@H](C)CO)C[C@@H]2C)cc1,-10[16.7 µM],-13
O=C(CCN1CCCCC1)N[C@@H]1CC[C@H](CCNC(=O)c2cc(Cl)cc(Cl)c2)O[C@H]1CO,-25[16.7 µM],-5
O=C(C[C@@H]1CC[C@@H](NS(=O)(=O)c2ccc(F)cc2)[C@H](CO)O1)NCc1ccncn1,1[16.7 µM],-8
C[C@H](CO)N1C[C@H](C)[C@@H](CN(C)Cc2ccc(-c3ccccc3)cc2)Oc2c(NS(=O)(=O)c3ccc(Cl)cc3)cccc2C1=O,-33[16.7 µM],-1
COc1ccc(S(=O)(=O)Nc2ccc3c(c2)C(=O)N([C@@H](C)CO)C[C@H](C)[C@@H](CN(C)C(=O)NC(C)C)O3)cc1,10[16.7 µM],-3
C[C@H]1ON(c2ccc(C(=O)OC(C)(C)C)cc2)[C@@H](c2ccc(O)cc2)[C@@H]1C(=O)N1C(=O)OC[C@@H]1c1ccccc1,-13[16.7 µM],2
CCCC#Cc1cnc2c(c1)C(=O)N([C@@H](C)CO)C[C@H](C)[C@@H](CN(C)C(=O)Cc1ccccc1)O2,-4[16.7 µM],7
COc1ccc(CN(C)C[C@H]2OCCCC[C@@H](C)Oc3ccc(NS(=O)(=O)c4cn(C)cn4)cc3C(=O)N([C@@H](C)CO)C[C@H]2C)cc1,4[16.7 µM],-4
C[C@@H]1CN([C@H](C)CO)C(=O)Cc2cc(NC(=O)C3CCCCC3)ccc2O[C@H]1CN(C)Cc1ccncc1,0[16.7 µM],-5
O=C(Cc1ccncc1)NCC[C@H]1CC[C@H](NC(=O)C2CCCCC2)[C@H](CO)O1,-11[16.7 µM],23
CO[C@H]1CN(C)C(=O)c2ccc(NS(=O)(=O)c3ccc(C)cc3)cc2OC[C@H](C)N(C)C[C@H]1C,-5[16.7 µM],15
CN(C)CCCNC(=O)C[C@@H]1CC[C@@H](NS(=O)(=O)c2ccccc2)[C@H](CO)O1,26[16.7 µM],-10
CN1CCN(C(=O)C[C@@H]2C=C[C@@H](NC(=O)c3ccc4c(c3)OCO4)[C@H](CO)O2)CC1,19[16.7 µM],-31
CO[C@@H]1CN(C)C(=O)c2ccc(NC(=O)c3ccccc3)cc2OC[C@H](C)N(C(=O)CN(C)C)C[C@H]1C,-20[16.7 µM],6
CCCNC(=O)N1C[C@H](C)[C@H](OC)CN(C)C(=O)c2ccc(NS(C)(=O)=O)cc2OC[C@@H]1C,8[16.7 µM],8
Cc1ccccc1-c1ccc2c(c1)O[C@@H](CN(C)Cc1ccncc1)[C@@H](C)CN([C@@H](C)CO)S2(=O)=O,31[16.7 µM],-12
CNC(=O)C[C@H]1CC[C@@H]2[C@H](COc3ccc(NC(=O)NC4CCCC4)cc3C(=O)N2C)O1,1[16.7 µM],-2
C[C@@H]1CN([C@@H](C)CO)C(=O)c2cc(NC(=O)C3CCCCC3)ccc2O[C@@H]1CN(C)Cc1ccccc1,7[16.7 µM],-3
CCCC#Cc1cnc2c(c1)C(=O)N([C@@H](C)CO)C[C@@H](C)[C@H](CN(C)C(=O)NC1CCCC1)O2,19[16.7 µM],3
C[C@@H]1CCCCO[C@@H](CN(C)S(=O)(=O)c2ccccc2)[C@H](C)CN([C@@H](C)CO)C(=O)c2cc(NC(=O)c3ccccc3)ccc2O1,-35[16.7 µM],-12
C[C@H](CO)N1C[C@H](C)[C@@H](CN(C)S(=O)(=O)c2cn(C)cn2)Oc2ccc(NC(=O)C3CC3)cc2CC1=O,1[16.7 µM],6
COCC(=O)N(C)C[C@H]1Oc2ncc(C3=CCCCC3)cc2C(=O)N([C@H](C)CO)C[C@H]1C,-10[16.7 µM],-10
O=C(N[C@H]1CC[C@H](CCNS(=O)(=O)Cc2ccccc2)O[C@H]1CO)c1ccccc1F,-94[16.7 µM],13
C[C@@H]1CN([C@H](C)CO)C(=O)Cc2cc(NC(=O)NC3CCCCC3)ccc2O[C@H]1CN(C)S(=O)(=O)c1ccc(Cl)cc1,4[16.7 µM],-13
COCc1cn(CC[C@H]2CC[C@H](NC(=O)Nc3ccc(OC)cc3)[C@@H](CO)O2)nn1,1[16.7 µM],1
C[C@H](CO)N1C[C@H](C)[C@@H](CN(C)C(=O)c2ccncc2)Oc2cc(-c3cccc(C#N)c3)ccc2S1(=O)=O,7[16.7 µM],-11
Cc1noc(C)c1NC(=O)Nc1ccc2c(c1)C(=O)N([C@@H](C)CO)C[C@H](C)[C@@H](CN(C)S(=O)(=O)c1cccs1)OCCCC[C@H](C)O2,-26[16.7 µM],12
O=S(=O)(N[C@@H]1CC[C@H](CCn2cc(-c3ccccn3)nn2)O[C@@H]1CO)c1cccc(Cl)c1,3[16.7 µM],-20
C[C@@H]1CN([C@H](C)CO)C(=O)c2cc(-c3ccc(F)cc3)cnc2O[C@@H]1CN(C)C(=O)c1ccccc1F,-9[16.7 µM],-1
C[C@@H]1CN([C@@H](C)CO)C(=O)c2cc(NS(=O)(=O)c3cn(C)cn3)ccc2O[C@@H](C)CCCCO[C@H]1CN(C)S(=O)(=O)c1cn(C)cn1,2[16.7 µM],1
C[C@@H]1CCCCO[C@@H](CN(C)C(=O)NC2CCCCC2)[C@H](C)CN([C@H](C)CO)C(=O)c2cc(N(C)C)ccc2O1,-32[16.7 µM],-1
C[C@@H]1CN([C@@H](C)CO)C(=O)Cc2cc(NS(=O)(=O)c3cn(C)cn3)ccc2O[C@H]1CN(C)Cc1ccccc1,11[16.7 µM],3
COc1ccc(S(=O)(=O)N(C)C[C@@H]2Oc3ccc(NC(=O)CCN4CCOCC4)cc3CC(=O)N([C@H](C)CO)C[C@H]2C)cc1,-10[16.7 µM],-6
C[C@@H]1CN([C@H](C)CO)C(=O)c2cc(NS(=O)(=O)c3ccc(Cl)cc3)ccc2O[C@H]1CN(C)S(C)(=O)=O,15[16.7 µM],0
Cc1noc(C)c1S(=O)(=O)Nc1ccc2c(c1)C(=O)N([C@@H](C)CO)C[C@@H](C)[C@H](CN(C)Cc1ccc(C(=O)O)cc1)OCCCC[C@H](C)O2,-12[16.7 µM],-18
COc1ccc(S(=O)(=O)Nc2ccc3c(c2)CC(=O)N([C@@H](C)CO)C[C@@H](C)[C@@H](CN(C)S(=O)(=O)c2c(C)noc2C)O3)cc1,0[16.7 µM],14
C[C@H](O)C#Cc1ccc2c(c1)O[C@@H](CN(C)Cc1ccncc1)[C@H](C)CN([C@@H](C)CO)S2(=O)=O,7[16.7 µM],-6
C[C@@H]1CN([C@H](C)CO)C(=O)c2cc(C#Cc3cccnc3)cnc2O[C@@H]1CN(C)Cc1ccncc1,-16[16.7 µM],-8
C[C@H](CO)N1C[C@H](C)[C@@H](CN(C)C(=O)c2ccc3c(c2)OCO3)Oc2cc(-c3cncnc3)ccc2S1(=O)=O,9[16.7 µM],-7
C[C@@H]1CN([C@@H](C)CO)C(=O)c2cc(C#CC(C)(C)O)cnc2O[C@@H]1CN(C)C(=O)C1CCC1,-4[16.7 µM],-2
O=C(NCC[C@@H]1CC[C@@H](NS(=O)(=O)c2ccccc2F)[C@@H](CO)O1)c1ccc(F)cc1,61*[16.7 µM],10
CNC[C@@H]1Oc2ccc(NC(=O)Nc3c(C)noc3C)cc2CC(=O)N([C@@H](C)CO)C[C@@H]1C,-6[16.7 µM],-4
C[C@H](CO)N1C[C@H](C)[C@@H](CN(C)CC2CC2)Oc2ccc(NC(=O)Nc3ccc(F)cc3)cc2CC1=O,11[16.7 µM],40
Cc1noc(C)c1NC(=O)Nc1ccc2c(c1)CC(=O)N([C@@H](C)CO)C[C@@H](C)[C@@H](CN(C)Cc1ccc(Oc3ccccc3)cc1)O2,-9[16.7 µM],6
C[C@H]1CN([C@@H](C)CO)C(=O)c2cc(C#CC3CC3)cnc2O[C@@H]1CN(C)Cc1ccncc1,-15[16.7 µM],-4
C[C@@H]1CN([C@@H](C)CO)C(=O)c2cc(C#CCN(C)C)cnc2O[C@@H]1CN(C)C(=O)c1cccnc1,-18[16.7 µM],-19

# One compound at a time (already shown):
# O=C(C[C@@H]1CC[C@@H]2[C@H](COC[C@@H](O)CN2CCC(F)(F)F)O1)N1CCC(Cc2ccccc2)CC1 in the list: Env fusion inh: 8[16.7 µM]; UUG fidelity: -2
# COCC(=O)N1C[C@@H](C)[C@H](OC)CN(C)C(=O)c2cc(NC(=O)c3ccc(OC)cc3)ccc2OC[C@@H]1C in the list: Env fusion inh: -1[16.7 µM]; UUG fidelity: 18
# C[C@H](CO)N1C[C@H](C)[C@@H](CN(C)C(=O)c2ccncc2)Oc2cc(-c3cccc(C#N)c3)ccc2S1(=O)=O in the list: Env fusion inh: 7[16.7 µM]; UUG fidelity: -11

# Following part
SMILES,Env fusion inh,UUG fidelity
COc1ccc(C#Cc2cnc3c(c2)C(=O)N([C@H](C)CO)C[C@@H](C)[C@@H](CN(C)CC2CCCC2)O3)cc1,4[16.7 µM],31
C[C@@H]1CN([C@H](C)CO)C(=O)c2cc(-c3cccc(F)c3)cnc2O[C@@H]1CN(C)Cc1ccccn1,10[16.7 µM],-8
C[C@H]1CN([C@@H](C)CO)C(=O)Cc2cc(NC(=O)CCN3CCOCC3)ccc2O[C@@H]1CN(C)S(C)(=O)=O,9[16.7 µM],6
Cc1noc(C)c1NC(=O)N(C)C[C@@H]1OCCCC[C@@H](C)Oc2ccc(NS(=O)(=O)c3ccc(F)cc3)cc2C(=O)N([C@@H](C)CO)C[C@H]1C,18[16.7 µM],10
C[C@@H]1CN([C@H](C)CO)C(=O)c2cc(NC(=O)CCC(F)(F)F)ccc2O[C@@H](C)CCCCO[C@@H]1CN(C)Cc1ccccc1,-30[16.7 µM],20
C[C@@H]1CCCCO[C@H](CN(C)C(=O)c2ccccc2)[C@@H](C)CN([C@H](C)CO)C(=O)c2cc(NC(=O)CCCN(C)C)ccc2O1,-4[16.7 µM],-6
COc1ccc(NC(=O)Nc2cccc3c2O[C@H](CN(C)Cc2ccc(C(F)(F)F)cc2)[C@@H](C)CN([C@H](C)CO)C3=O)cc1,55[16.7 µM],15
C[C@@H]1CCCCO[C@H](CN(C)Cc2ccc(C(F)(F)F)cc2)[C@H](C)CN([C@@H](C)CO)C(=O)c2cc(NC(=O)CCC(F)(F)F)ccc2O1,23[16.7 µM],-3
C[C@H]1CN([C@@H](C)CO)C(=O)Cc2cc(NC(=O)C3CCCCC3)ccc2O[C@@H]1CN(C)CC1CC1,-4[16.7 µM],-22
C[C@@H]1CN([C@@H](C)CO)C(=O)Cc2cc(NC(=O)C3CCCCC3)ccc2O[C@H]1CN(C)Cc1ccc2c(c1)OCO2,-33[16.7 µM],8
